Screening data as filed in PubChem BioAssay.
Yeast UUG start: alters start codon recognition fidelity in yeast; S. cerevisiae UUG-firefly luciferase reporter, luminescence/redox ratio; activity score, % at 18.7 µM; 350,000 tested, 0.13% active; AID 602363;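 active = replicate mean at a twofold rise or more, about +100% in these data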;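 note: firefly luciferase made from a UUG start codon reports start codon fidelity; reporter light over untreated wells divided by growth signal over untreated wells; some hits fall short of that in this replicate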
HIV Env fusion: HIV envelope-mediated fusion inhibition; 360,000 tested, 1.1% active; inhibition, % at 12.3 µM; HeLa-JRFL Env/CEM21 cell fusion, luciferase;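 active = mean replicate inhibition score of at least 50 and every replicate individually at or above 50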;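 note: 0% = plate neutral controls and 100% = maraviroc near 300 nM; one replicate is shown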
Starred values were filed as active, the others as inactive; [ ] = remark or other dose. An excerpt, so the mix of outcomes need not match the whole.

SMILES	Yeast UUG start	HIV Env fusion
CO[C@H]1CN(C)C(=O)c2cc(NC(=O)Cc3ccccc3)ccc2OC[C@H](C)N(CC2CC2)C[C@@H]1C	-2	10[16.7 µM]
C[C@@H]1CCCCO[C@H](CN(C)Cc2ccc(Cl)c(Cl)c2)[C@H](C)CN([C@@H](C)CO)C(=O)c2cc(NC(=O)Nc3ccccc3)ccc2O1	11	14[16.7 µM]
C[C@@H]1CCCCO[C@H](CN(C)S(=O)(=O)c2cccs2)[C@@H](C)CN([C@H](C)CO)C(=O)c2cc(NS(=O)(=O)c3ccc(F)cc3)ccc2O1	-7	-13[16.7 µM]
COCC#Cc1ccc2c(c1)O[C@@H](CN(C)C(=O)CN(C)C)[C@H](C)CN([C@@H](C)CO)S2(=O)=O	2	2[16.7 µM]
C[C@@H]1CN([C@H](C)CO)C(=O)Cc2cc(NC(=O)C3CC3)ccc2O[C@@H]1CN(C)S(=O)(=O)c1ccccc1	12	5[16.7 µM]
C[C@@H]1CN([C@@H](C)CO)S(=O)(=O)c2ccc(-c3cccc(F)c3)cc2O[C@@H]1CN(C)C	8	22[16.7 µM]
C[C@@H]1CCCCO[C@@H](CN(C)CC2CCCCC2)[C@H](C)CN([C@H](C)CO)C(=O)c2cc(NS(=O)(=O)c3ccc(F)cc3)ccc2O1	29	-16[16.7 µM]
C[C@@H]1CCCCO[C@@H](CN(C)C(=O)C2CCCCC2)[C@H](C)CN([C@@H](C)CO)C(=O)c2cc(NS(=O)(=O)c3cccs3)ccc2O1	32	37[16.7 µM]
C[C@H](CO)N1C[C@H](C)[C@H](CN(C)C(=O)Cc2ccccc2)Oc2ncc(-c3ccccc3)cc2C1=O	-10	20[16.7 µM]
COc1ccc(NC(=O)Nc2cccc3c2O[C@@H](CN(C)C(=O)NC(C)C)[C@@H](C)CN([C@@H](C)CO)C3=O)cc1	10	1[16.7 µM]
CCCNC(=O)C[C@@H]1C[C@H]2c3cc(NC(=O)Nc4ccc(F)cc4)ccc3O[C@H]2[C@H](CO)O1	2	26[16.7 µM]
C[C@@H]1CN([C@@H](C)CO)C(=O)c2cc(NC(=O)Cc3ccccc3)ccc2O[C@@H](C)CCCCO[C@@H]1CN(C)C(=O)c1ccccc1	28	8[16.7 µM]
CCNC(=O)C[C@H]1CC[C@H]2[C@H](COc3ccc(NC(=O)c4cccc(C(F)(F)F)c4)cc3C(=O)N2C)O1	7	-8[16.7 µM]
C[C@@H]1CN([C@H](C)CO)C(=O)c2cccc(NS(=O)(=O)c3ccc(Cl)cc3)c2O[C@H]1CN(C)C(=O)Nc1ccc2c(c1)OCO2	5	-6[16.7 µM]
C[C@@H]1CN([C@H](C)CO)C(=O)c2cc(NC(=O)Nc3ccc(F)cc3)ccc2O[C@@H](C)CCCCO[C@@H]1CN(C)Cc1ccc2c(c1)OCO2	18	27[16.7 µM]
C[C@@H]1CN([C@@H](C)CO)C(=O)c2cccc(NS(=O)(=O)c3ccccc3)c2O[C@H]1CN(C)Cc1ccc(C(=O)O)cc1	-15	13[16.7 µM]
CO[C@@H]1CN(C)C(=O)c2cc(NC(C)=O)ccc2OC[C@@H](C)N(Cc2cc(F)ccc2F)C[C@@H]1C	-6	15[16.7 µM]
C[C@H](CO)N1C[C@H](C)[C@@H](CN(C)S(=O)(=O)c2ccccc2)OCCCC[C@H](C)Oc2ccc(NC(=O)Nc3cccc4ccccc34)cc2C1=O	-13	-191[16.7 µM]
C[C@H]1CN([C@@H](C)CO)C(=O)Cc2cc(NC(=O)C3CCCCC3)ccc2O[C@H]1CN(C)Cc1ccc(C(=O)Nc2ccccc2N)cc1	2	-35[16.7 µM]
C[C@@H]1CCCCO[C@@H](CN(C)Cc2ccncc2)[C@H](C)CN([C@@H](C)CO)C(=O)c2cc(NC(=O)CCCN(C)C)ccc2O1	-7	15[16.7 µM]
COc1ccc(NC(=O)Nc2cccc3c2O[C@@H](CN(C)C(=O)Nc2ccc(OC)cc2)[C@@H](C)CN([C@@H](C)CO)C3=O)cc1	17	6[16.7 µM]
C[C@@H]1CN([C@H](C)CO)C(=O)c2cc(NC(=O)Cc3cn(C)c4ccccc34)ccc2O[C@H]1CN(C)C(=O)Nc1ccccc1	-10	-27[16.7 µM]
CC(C)C#Cc1cnc2c(c1)C(=O)N([C@H](C)CO)C[C@@H](C)[C@H](CN(C)C(=O)CC1CC1)O2	16	-6[16.7 µM]
COc1ccccc1NC(=O)N[C@@H]1C=C[C@H](CC(=O)N2CCC(Cc3ccccc3)CC2)O[C@@H]1CO	21	18[16.7 µM]
Cc1noc(C)c1NC(=O)N(C)C[C@@H]1Oc2ccc(NS(=O)(=O)c3cccs3)cc2CC(=O)N([C@H](C)CO)C[C@@H]1C	-12	-10[16.7 µM]
C[C@@H](NC(=O)C[C@H]1CC[C@@H]2[C@H](COC[C@H](O)CN2Cc2ccc(C(F)(F)F)cc2)O1)c1ccccc1	24	-21[16.7 µM]
Cc1ccc(S(=O)(=O)N(C)C[C@@H]2OCCCC[C@@H](C)Oc3ccc(NC(=O)Cc4ccccc4)cc3C(=O)N([C@@H](C)CO)C[C@H]2C)cc1	-5	-42[16.7 µM]
COc1ccc(S(=O)(=O)N(C)C[C@@H]2Oc3ccc(NS(=O)(=O)c4c(C)noc4C)cc3CC(=O)N([C@H](C)CO)C[C@H]2C)cc1	17	1[16.7 µM]
CC(C)CC#Cc1cnc2c(c1)C(=O)N([C@@H](C)CO)C[C@@H](C)[C@@H](CN(C)C(=O)c1ccccc1)O2	33	5[16.7 µM]
O=C(C[C@H]1C[C@@H]2c3cc(NC(=O)C4CCC4)ccc3O[C@@H]2[C@@H](CO)O1)NCc1ccc(-c2ccccc2)cc1	5	-5[16.7 µM]
CC(=O)N[C@@H]1C=C[C@@H](CC(=O)NCC2CCCCC2)O[C@@H]1CO	-20	5[16.7 µM]
CCCC(=O)Nc1ccc2c(c1)OC[C@H](C)N(C)C[C@@H](C)[C@@H](OC)CN(C)C2=O	-12	0[16.7 µM]
C[C@@H]1CN([C@@H](C)CO)C(=O)c2cc(-c3cccc(F)c3)cnc2O[C@H]1CN(C)C(=O)C1CCC1	3	-5[16.7 µM]
C[C@H](CO)N1C[C@H](C)[C@@H](CN(C)C(=O)Nc2ccc(F)cc2)Oc2ccc(NS(=O)(=O)c3cccs3)cc2CC1=O	10	-2[16.7 µM]
O=C(C[C@H]1CC[C@@H](NS(=O)(=O)c2ccc(F)cc2)[C@@H](CO)O1)NC1CCC1	-15	-25[16.7 µM]
CN1C(=O)c2cc(NC(=O)c3cscn3)ccc2OC[C@@H]2O[C@@H](CC(=O)N3CCCCC3)CC[C@@H]21	-1	1[16.7 µM]
C[C@@H]1CN([C@@H](C)CO)C(=O)Cc2cc(NC(=O)Cn3cnnn3)ccc2O[C@@H]1CN(C)Cc1ccc(C(=O)O)cc1	-25	-2[16.7 µM]
C[C@@H]1CN([C@@H](C)CO)C(=O)c2cccc(NS(=O)(=O)c3ccccc3)c2O[C@@H]1CN(C)Cc1ccc(Oc2ccccc2)cc1	5	-2[16.7 µM]
C[C@@H]1CN([C@H](C)CO)C(=O)c2cc(C#CCN(C)C)cnc2O[C@@H]1CN(C)Cc1ccc(F)cc1	-6	13[16.7 µM]
O=C(O)C[C@@H]1C[C@H]2c3cc(NC(=O)CC4CC4)ccc3O[C@H]2[C@H](CO)O1	5	-5[16.7 µM]
COc1ccc(S(=O)(=O)N(C)C[C@@H]2OCCCC[C@@H](C)Oc3ccc(N(C)C)cc3C(=O)N([C@@H](C)CO)C[C@@H]2C)cc1	13	0[16.7 µM]
COc1ccc(CNC(=O)C[C@@H]2CC[C@H](NS(=O)(=O)c3cccc(OC)c3)[C@@H](CO)O2)cc1	-16	1[16.7 µM]
CC(C)NC(=O)Nc1ccc2c(c1)CC(=O)N([C@@H](C)CO)C[C@H](C)[C@@H](CN(C)C(=O)Nc1ccc(F)cc1)O2	11	-8[16.7 µM]
C[C@H]1CN([C@@H](C)CO)C(=O)Cc2cc(NS(=O)(=O)c3cccs3)ccc2O[C@H]1CN(C)C(=O)NC1CCCCC1	17	-17[16.7 µM]
COC(=O)C[C@H]1CC[C@@H]2[C@@H](COc3ccc(NC(=O)Nc4ccccc4C)cc3C(=O)N2C)O1	4	9[16.7 µM]
C[C@@H]1CN([C@H](C)CO)C(=O)c2cc(C#CC3(O)CCCC3)cnc2O[C@H]1CN(C)S(C)(=O)=O	3	-2[16.7 µM]
C[C@@H]1CN([C@H](C)CO)C(=O)c2cc(NC(=O)CCN3CCOCC3)ccc2O[C@@H]1CN(C)Cc1ccc2c(c1)OCO2	-6	1[16.7 µM]
C[C@@H]1CN([C@H](C)CO)C(=O)c2cc(NC(=O)c3ccccc3)ccc2O[C@@H](C)CCCCO[C@@H]1CN(C)S(C)(=O)=O	-1	-27[16.7 µM]

A run of entries of the results above:
SMILES	Yeast UUG start	HIV Env fusion
CO[C@H]1CN(C)C(=O)c2cc(NC(=O)Cc3ccccc3)ccc2OC[C@H](C)N(CC2CC2)C[C@@H]1C	-2	10[16.7 µM]
C[C@@H]1CCCCO[C@H](CN(C)Cc2ccc(Cl)c(Cl)c2)[C@H](C)CN([C@@H](C)CO)C(=O)c2cc(NC(=O)Nc3ccccc3)ccc2O1	11	14[16.7 µM]
C[C@@H]1CCCCO[C@H](CN(C)S(=O)(=O)c2cccs2)[C@@H](C)CN([C@H](C)CO)C(=O)c2cc(NS(=O)(=O)c3ccc(F)cc3)ccc2O1	-7	-13[16.7 µM]
COCC#Cc1ccc2c(c1)O[C@@H](CN(C)C(=O)CN(C)C)[C@H](C)CN([C@@H](C)CO)S2(=O)=O	2	2[16.7 µM]
C[C@@H]1CN([C@H](C)CO)C(=O)Cc2cc(NC(=O)C3CC3)ccc2O[C@@H]1CN(C)S(=O)(=O)c1ccccc1	12	5[16.7 µM]
C[C@@H]1CN([C@@H](C)CO)S(=O)(=O)c2ccc(-c3cccc(F)c3)cc2O[C@@H]1CN(C)C	8	22[16.7 µM]

Carrying on:
SMILES	Yeast UUG start	HIV Env fusion
COc1ccc(S(=O)(=O)Nc2ccc3c(c2)C(=O)N([C@H](C)CO)C[C@H](C)[C@@H](CN(C)C(=O)c2ccccc2)OCCCC[C@@H](C)O3)cc1	4	13[16.7 µM]
CCCN(C)C[C@@H]1Oc2ncc(-c3ccccc3F)cc2C(=O)N([C@H](C)CO)C[C@@H]1C	21	6[16.7 µM]
C[C@@H]1CCCCO[C@@H](CN(C)Cc2ccc3c(c2)OCO3)[C@@H](C)CN([C@H](C)CO)C(=O)c2cc(NC(=O)CCCN(C)C)ccc2O1	-7	23[16.7 µM]
CNC(=O)C[C@@H]1CC[C@H]2[C@@H](COc3ccc(NC(=O)c4cccc(OC)c4)cc3C(=O)N2C)O1	-11	-6[16.7 µM]
COc1ccc(CN(C)C[C@H]2OCCCC[C@H](C)Oc3ccc(NC(=O)Cc4ccccc4)cc3C(=O)N([C@@H](C)CO)C[C@@H]2C)cc1	26	7[16.7 µM]
CC(C)NC(=O)Nc1ccc2c(c1)C(=O)N(C)[C@@H]1CC[C@H](CC(=O)NC3CCCCC3)O[C@H]1CO2	19	-15[16.7 µM]
C[C@@H]1CCCCO[C@@H](CN(C)Cc2ccc(C(=O)O)cc2)[C@H](C)CN([C@H](C)CO)C(=O)c2cc(NC(=O)C3CCCCC3)ccc2O1	12	13[16.7 µM]
CCCC#Cc1ccc2c(c1)O[C@@H](CN(C)C(=O)NCCC)[C@@H](C)CN([C@@H](C)CO)S2(=O)=O	14	-28[16.7 µM]
C[C@@H]1CCCCO[C@@H](CN(C)C(=O)Nc2ccc(C(F)(F)F)cc2)[C@H](C)CN([C@H](C)CO)C(=O)c2cc(NC(=O)C3CCCCC3)ccc2O1	-12	14[16.7 µM]
CC(C)NC(=O)Nc1ccc2c(c1)C(=O)N([C@@H](C)CO)C[C@H](C)[C@@H](CN(C)S(=O)(=O)c1cn(C)cn1)O2	1	-45[16.7 µM]
C[C@@H]1CN([C@@H](C)CO)C(=O)c2cc(NC(=O)Nc3ccc4c(c3)OCO4)ccc2O[C@H]1CN(C)C(=O)NC1CCCCC1	-2	-5[16.7 µM]
C[C@@H]1CN([C@H](C)CO)C(=O)Cc2cc(NS(=O)(=O)c3cn(C)cn3)ccc2O[C@@H]1CN(C)C(=O)Nc1ccccc1	-13	-18[16.7 µM]
C[C@@H]1CN([C@H](C)CO)C(=O)c2cc(-c3cncnc3)cnc2O[C@H]1CN(C)Cc1cncnc1	-18	-11[16.7 µM]
O=C(CCN1CCCCC1)N[C@H]1CC[C@@H](CCn2cc(-c3ccc(F)cc3)nn2)O[C@H]1CO	0	4[16.7 µM]
C[C@@H]1CN([C@@H](C)CO)C(=O)c2cc(-c3ccccc3)cnc2O[C@H]1CN(C)C(=O)c1cccc(F)c1	1	6[16.7 µM]
CCCN(C)C[C@@H]1Oc2cc(C#Cc3ccccc3F)ccc2S(=O)(=O)N([C@@H](C)CO)C[C@@H]1C	20	23[16.7 µM]
COc1ccc(S(=O)(=O)Nc2ccc3c(c2)CC(=O)N([C@H](C)CO)C[C@H](C)[C@@H](CN(C)Cc2ccccc2)O3)cc1	40	3[16.7 µM]
C[C@H](O)C#Cc1cnc2c(c1)C(=O)N([C@H](C)CO)C[C@H](C)[C@@H](CN(C)C(=O)c1ccccc1)O2	9	-17[16.7 µM]
CN1CCN(C(=O)C[C@H]2CC[C@H]3[C@@H](COC[C@H](O)CN3C(=O)C3CCOCC3)O2)CC1	-9	-6[16.7 µM]
C[C@@H]1CN([C@H](C)CO)C(=O)c2cc(NC(=O)CCC(F)(F)F)ccc2O[C@@H](C)CCCCO[C@H]1CN(C)S(=O)(=O)c1ccc(F)cc1	26	7[16.7 µM]

Full records from above. Values in the order: Yeast UUG start | HIV Env fusion
Shown for `CC(C)CC#Cc1cnc2c(c1)C(=O)N([C@@H](C)CO)C[C@@H](C)[C@@H](CN(C)C(=O)c1ccccc1)O2` = 33 | 5[16.7 µM]
Shown for `O=C(O)C[C@@H]1C[C@H]2c3cc(NC(=O)CC4CC4)ccc3O[C@H]2[C@H](CO)O1` = 5 | -5[16.7 µM]
